Rango dissoc inh: prevents RanGTP from dissociating the Rango-importin beta complex; O95149+P62826; Biochemical FRET Rango-importin beta, RanGTP-induced dissociation; Potency, µM (titrated, usually from 46.1 µM), inactives show at the highest dose activity change, negative = inhibition; 340,000 compounds, 0.071% hits; AID 540253; active means falling FRET ratio curve, often poorly fitted, with flat reads before Ran was added; inconclusive means other falling curves, or compound fluorescence or quenching; inactive means flat or rising ratio curve;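 further: potency means the concentration at half of the fitted maximal effect; % of control where 0% means no effect; nearly all actives have a fitted effect of over 45% in size; -100% = wells without RanGTP and RCC1; the record marks most hits as doubtful in a second field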
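Rango/importin beta premix (0.1/0.25 uM final), PBS + 1 mM DTT + 0.02% Tween-20 + 0.1% BSA; cpd 5 min RT; FRET pre-read; + RanGTP-RCC1 (0.6 uM Ran, 2 mM GTP, 0.2 uM RCC1); 45 min RT; FRET post-read, ex 430, em 486/530 nm.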
Rango complex inh: Rango-importin beta binding inhibition; Q14974; Rango CFP/YFP FRET sensor + importin beta, 45 min; Potency, µM (titrated, usually from 92.2 µM), without a hit: top-dose inhibition of complex formation; 340,000 compounds, 0.031% hits; AID 540263; active = rising FRET ratio curve, often small or poorly fitted; inconclusive = mostly compound fluorescence or quenching in the first reads; inactive = flat curves in all reads;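 further: potency means the concentration at half of the fitted maximal effect; 0% = DMSO wells and 100% = buffer wells lacking importin beta; nearly all actives have a fitted effect of over 15% in size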
Target sequence (Q14974 whole entry, looked up): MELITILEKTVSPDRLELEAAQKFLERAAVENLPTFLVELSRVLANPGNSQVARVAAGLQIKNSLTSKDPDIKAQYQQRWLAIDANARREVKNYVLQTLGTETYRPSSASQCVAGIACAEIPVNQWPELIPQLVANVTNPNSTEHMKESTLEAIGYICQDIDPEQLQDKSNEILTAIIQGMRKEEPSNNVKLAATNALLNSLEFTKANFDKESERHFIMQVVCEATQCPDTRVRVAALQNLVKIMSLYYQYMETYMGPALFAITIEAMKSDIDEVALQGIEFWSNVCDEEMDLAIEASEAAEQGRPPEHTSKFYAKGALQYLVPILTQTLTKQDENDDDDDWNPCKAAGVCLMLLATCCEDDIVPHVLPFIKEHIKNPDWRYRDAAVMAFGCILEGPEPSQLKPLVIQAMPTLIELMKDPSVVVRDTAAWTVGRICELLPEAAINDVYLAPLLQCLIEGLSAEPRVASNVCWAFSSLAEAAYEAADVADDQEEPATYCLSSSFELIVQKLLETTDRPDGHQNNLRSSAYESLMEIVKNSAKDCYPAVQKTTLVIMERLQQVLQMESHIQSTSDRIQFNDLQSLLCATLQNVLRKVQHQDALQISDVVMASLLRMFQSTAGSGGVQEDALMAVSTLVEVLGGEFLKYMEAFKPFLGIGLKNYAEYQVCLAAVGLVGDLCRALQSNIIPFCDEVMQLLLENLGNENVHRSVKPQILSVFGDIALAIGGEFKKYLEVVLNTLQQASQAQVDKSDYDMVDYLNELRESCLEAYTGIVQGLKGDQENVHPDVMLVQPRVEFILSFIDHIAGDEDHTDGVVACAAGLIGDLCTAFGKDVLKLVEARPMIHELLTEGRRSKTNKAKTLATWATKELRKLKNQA
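Inhibition scored from the CFP 486 nm/YFP 530 nm FRET ratio 45 min after adding 0.125 microM importin beta to 50 nM Rango biosensor preincubated 5 min with compound (room temperature, PBS with DTT, Tween-20, BSA). No-importin wells as positive control.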
GLA inh pH 4.5: blocks human alpha-galactosidase A at pH 4.5 | P06280 | purified enzyme, 4-MU-alpha-Gal fluorescence, pH 4.5 | activity change, negative = inhibition, % at 105 µM | 230,000 tested, under 10 active | AID 1467; inconclusive = small, poorly fitted or top-dose-only inhibition, or a rising curve; inactive = flat fitted curve, though single readings scatter; no compound was filed as active;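 further: 0% = full activity with enzyme and -100% = basal without enzyme; dose as in the result columns while the protocol names 77 µM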
miR-21 reporter: miR-21 reporter, rising signal; HeLa miR-21 FLuc reporter, luciferase, 48 h; Potency, µM (top dose mostly 38.3 µM), for the others: at the top dose reporter change, positive = more light; 340,000 tested, under 10 active; active = well fitted rising curve with a large enough effect; inconclusive = small, poorly fitted or top-dose-only effect; inactive = no such curve, though single readings can be large or run the other way;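 further: % of control where 0% means no effect; miR-21 action dims this reporter so a rising signal means less miR-21 action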
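HeLa miR-21-FLuc reporter line, endogenous miR-21; 2000 cells/well in DMEM/10% FBS; compound titration up to ~40uM final, 48 h, 37 degree Celsius; luciferase detection reagent, 15 min lysis, CCD luminescence.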
Active calls of the source: *; ? = inconclusive; / = not tested or not shown; & = joins results of further samples.

GLA inh pH 4.5 | Rango complex inh | miR-21 reporter | Rango dissoc inh | smiles
3 | 0.1% | 1% | 5% | CCC1(C)Cc2[nH]c(=O)c(C#N)cc2CO1 (stereo unspecified)
-1 | -1.1% | 0% | 10% | Cc1ccc(CN2CCNC(=O)C2CC(=O)N(Cc2c(C)nn(C)c2C)C2CC2)o1 (stereo unspecified)
/ | -3.0% | 0% | 33% | CC(NC(=O)c1cccnc1Sc1ccccc1)c1ccc(S(N)(=O)=O)cc1 (stereo unspecified)
8 | -0.3% | 0% | 0% | NS(=O)(=O)c1ccc(CCNC(=O)COC(=O)/C=C/c2ccccc2Cl)cc1
/ | 5.0% | / | 11% | Cc1occc1-c1nnc(SC(C)C(=O)Nc2ccccc2F)o1 (stereo unspecified)
/ | 5.3% | / | -1% | CC(OC(=O)CC1CC2CCC1C2)C(=O)Nc1ccc(C(N)=O)cc1 (stereo unspecified)
-6 | -0.3% | 0% | 16% | CCOc1ccc(-c2noc(CCC(N)=O)n2)cc1OCC
-7 | -5.3% | -12% | 6% | CCN(CC)S(=O)(=O)c1cccc(C(=O)OCC(=O)Nc2ccc3c(c2)c2ccccc2n3CC)c1
/ | -0.8% | / | -7% | CCCC(=O)Nc1cc(-c2nnc(OC)c3ccccc23)ccc1N1CCOCC1
/ | 0.6% | 0% | 10% | Cc1ccc(S(=O)(=O)NCC(=O)NC2CCCC2)cc1
-6 | ? | -41% | -14% | Cc1noc(NS(=O)(=O)c2ccc(N/C=C\C(=O)c3ccc4c(c3)OCO4)cc2)c1C
3 | -6.7% | -10% | 0% | CCOC(=O)Cc1csc(NC(=O)Cc2cccs2)n1
-18 | 0.1% | -23% | -6% | CCCSc1ncnc2sc(C)c(C)c12
/ | 4.1% | / | -8% | C#CCOCCOCCOCCNc1nc(N2CCN(C(=O)CCCCCCCCCCNC(=O)[C@@H](CCC(=O)O)n3cc(CCCCCN)nn3)CC2)nc(N2CCN(C(=O)CCCCCCCCCCNC(=O)[C@H](CO)n3cc(CCCCCN)nn3)CC2)n1
-2 | 0.1% | -5% | 9% | CCC1=C(OC(=O)c2ccccc2)C(C)(C)C(c2ccccc2)OC1=O (stereo unspecified)
/ | ? | -28% | ? | CC1CCN(C2=NC(=O)/C(=C/c3ccc(O)cc3)S2)CC1
/ | -1.8% | / | -6% | Cc1ccc(S(=O)(=O)N2CCC3(CC2)CC(=O)c2ccccc2O3)cc1
0 | 5.2% | ? | -1% | O=C1/C(=C/c2cccc(Cl)c2)CSc2sccc21
-1 | -3.2% | -2% | 6% | C=CCN1CN=C(NS(=O)(=O)c2ccc(NC(C)=O)cc2)NC1
/ | 7.3% | -3% | 3% | CN1CCN(Cc2cccc3ncccc23)CC1CCO (stereo unspecified)
3 | 1.6% | -6% | 8% | Cc1nnc(-c2cccc(Br)c2)c2cn(-c3ccccc3)nc12
5 | 1.8% | -14% | 5% | CCOC(=O)NC1(NC2CCCCC2)Oc2ccccc2O1
2 | ? | -11% | ? | Cc1nc(SCC(=O)c2ccc(Cl)s2)c2oc3ccccc3c2n1
/ | 0.6% | / | 12% | CN(CCc1ccccc1)C(=O)c1ccc(NC(=O)Cc2cccc(NC(=O)C3CCN(C(=O)C4CCCC4)CC3)c2)cc1
8 | 8.6% | -20% | 4% | COc1ccc(-c2csc(C3=C(O)CN(Cc4ccc(Cl)cc4)C3=N)n2)cc1OC
-4 | -0.1% | 5% | 8% | CCOC(=O)N1CCN(C(=O)/C(=C/c2ccc(Cl)cc2)NC(=O)c2ccccc2)CC1
1 | -4.3% | 25% | -1% | COc1ccc(C2SCCN2C(=S)Nc2cccc(C(F)(F)F)c2)cc1 (stereo unspecified)
-10 | 3.8% | -2% | 0% | O=C(NCCc1ccccc1)C(NS(=O)(=O)c1cccc2nsnc12)c1ccccc1 (stereo unspecified)
-1 | -0.2% | -5% | 2% | Cc1ccc(NC(=O)/C(=C\c2ccccc2)NC(=O)c2ccco2)cc1
/ | 2.0% | -22% | -8% | COc1cccc(NC(=O)CN2CCCCCC2)c1
1 | 0.4% | -40% | 1% | O=C(CNC(=O)c1ccccn1)N/N=C/c1ccc2c(c1)OCO2
-1 | 7.9% | 8% | -7% | CCC1=NN(C(=O)c2cccc(Br)c2)C(O)(c2ccc(Br)cc2)C1 (stereo unspecified)
0 | ? | -7% | -2% | O=C(C1=NN[C@@H]2C(=O)N(c3cccc(C(F)(F)F)c3)C(=O)[C@H]12)c1ccc2ccccc2n1
11 | -4.5% | -5% | -5% | COC(=O)CCC(=O)Nc1ccc(Cl)c(Cl)c1
-11 | -1.2% | -14% | -9% | COc1ccc(N=C(C)C2=C(O)COC2=O)cc1
/ | 6.9% | 1% | 2% | CCCc1cc(=O)oc2cc(OCC(=O)NC3CC(C)(C)NC(C)(C)C3)ccc12
-1 | -4.3% | 19% | 8% | CCn1ncc(/C=C/C(=O)Nc2c(C)nn(Cc3ccc(Cl)cc3Cl)c2C)c1C
/ | 5.2% | -5% | 13% | Cc1ccccc1NC(=O)Cc1cccs1
/ | ? | -27% | 5% | Cc1ccccc1Cn1cc(CCC(=O)N2CCOCC2)c2ccccc21
-5 | -6.4% | -1% | -5% | COc1ccccc1CC(=O)N1CCCC(CCC(=O)NCc2ccccc2F)C1 (stereo unspecified)
-1 | -1.2% | 0% | 12% | COC(C/C=C/[C@H](O)COCc1ccccc1)OC
-3 | -1.2% | -2% | -15% | CCc1ccc(N(C(=O)c2csnn2)C(C(=O)NC(C)(C)CC)c2ccccn2)cc1 (stereo unspecified)
/ | 3.0% | -5% | 16% | Cn1c(SCC(=O)NC2CCCCC2)nnc1-c1ccccc1F
-1 | ? | -8% | 49% | COC(=O)COc1ccc(S(=O)(=O)NCCC2=CCCCC2)cc1C
-14 | / | -10% | / | Cc1nc2c(C(=O)NCc3cccs3)cnn2c(C)c1Cc1ccccc1
8 | -0.2% | -9% | 16% | Cc1cccc2cc(CN(CC3CCCO3)C(=O)c3ccco3)c(=O)[nH]c12 (stereo unspecified)
/ | 0.7% | / | -11% | COc1ccc(CN(C)C(=O)C2CC(=O)N(c3ccc4c(c3)OCCO4)C2)c(OC)c1 (stereo unspecified)
4 | -0.6% | 1% | 4% | CC(=O)NCCc1nc2ccccc2n1Cc1cc(C)ccc1C
2 | 1.9% | -4% | -1% | CCCn1c(CCc2ccccc2)n[nH]c1=S
3 | 0.7% | -1% | 3% | COc1ccccc1C(=O)N/C(=C/c1ccc(Br)cc1)C(=O)NCCO
-5 | 1.3% | 1% | -1% | COc1ccc(CNC(=O)C2CCCN2C(=O)NC2CCCCC2)cc1 (stereo unspecified)
/ | -4.1% | 0% | -21% | Cc1ccc(C(=O)Nc2ccncc2)c(C)c1
-1 | ? | -4% | -21% | COc1ccc(/C=N/NC(=O)Nc2cccc3nsnc23)cc1OC
-6 | 1.0% | 1% | 34% | O=c1[nH]c(-c2ccc(Cl)cc2)cs1
/ | -0.5% | / | 3% | CC(=O)c1ccc(N2CCN(C(C)C(=O)Nc3ccc4c(c3)OCCO4)CC2)cc1 (stereo unspecified)
-2 | 1.7% | ? | -11% | Cc1ccc(Cl)cc1NC(=O)CC(O)(C(F)(F)F)C(F)(F)F

Other results.
GLA inh pH 4.5 | Rango complex inh | miR-21 reporter | Rango dissoc inh | smiles
-4 | -0.8% | 1% | ? | CCc1cc(=O)oc2cc(C)cc(OC(=O)c3ccco3)c12
-6 | 1.0% | 23% | -9% | C=CCn1c(-c2ccc(OC)cc2)csc1=Nc1c(C)n(C)n(-c2ccccc2)c1=O
/ | -2.2% | / | 9% | COc1ccc(NC(=O)CN(C)C(=O)CCc2nc3cc(S(=O)(=O)N4CCOCC4)ccc3n2C)cc1
-5 | -2.6% | -34% | 5% | Cn1c(C(=O)O)c(CC(=O)Nc2ccc3c(c2)OCCO3)c2ccccc21
-3 | 0.1% | 3% | -1% | CC(=O)c1cccc(-n2nnnc2SCC(=O)NNC(=O)C2CCCCC2)c1
/ | 0.3% | / | -18% | COc1ccc(C(C)=O)cc1CS(=O)(=O)CC(=O)NCCc1c[nH]c2ccccc12
-6 | 0.5% | -1% | -1% | CN(C(=O)c1ccccc1C(=O)OCC(=O)NCc1ccccc1)C1CCCCC1
/ | -1.5% | 1% | 2% | Cc1sc2nc(C3CC3)nc(N3CCN(C(=O)c4ccc(F)cc4)CC3)c2c1C

A stretch of the results above, as a working copy:
GLA inh pH 4.5 | Rango complex inh | miR-21 reporter | Rango dissoc inh | smiles
-3 | 0.1% | 3% | -1% | CC(=O)c1cccc(-n2nnnc2SCC(=O)NNC(=O)C2CCCCC2)c1
/ | 0.3% | / | -18% | COc1ccc(C(C)=O)cc1CS(=O)(=O)CC(=O)NCCc1c[nH]c2ccccc12
-6 | 0.5% | -1% | -1% | CN(C(=O)c1ccccc1C(=O)OCC(=O)NCc1ccccc1)C1CCCCC1
/ | -1.5% | 1% | 2% | Cc1sc2nc(C3CC3)nc(N3CCN(C(=O)c4ccc(F)cc4)CC3)c2c1C

Next part.
GLA inh pH 4.5 | Rango complex inh | miR-21 reporter | Rango dissoc inh | smiles
/ | ? | ? | ? | O=C(COCc1cc(-c2ccc3c(c2)OCO3)on1)Nc1cccnc1
/ | 3.8% | / | 1% | CC1CCCN(C(=O)COC(=O)C2CCN(S(=O)(=O)c3ccc4c(c3)OCCO4)CC2)C1 (stereo unspecified)
-3 | 2.0% | -6% | -12% | C=CCC1C=C(Cc2ccccc2)CC(CC=C)N1 (stereo unspecified)
/ | ? | -8% | -6% | COc1cccc(N2C(=O)CC(c3c[nH]c4ccccc34)C2=O)c1 (stereo unspecified)
7 | -0.3% | -9% | -2% | Cc1ccc(NC(=O)CCn2cccc2)cc1C
9 | 0.0% | -1% | 5% | CC1(C)N=C(N)N=C(N)N1c1ccc(F)cc1F
-5 | -1.5% | -19% | 0% | CCN(CC)CCN(C(=O)c1ccc(N2C(=O)CCC2=O)cc1)c1nc2cc3c(cc2s1)OCCO3
-1 | 1.4% | 3% | 7% | COc1ccc(N2CCN(C(=O)CCc3c[nH]c4ccccc34)CC2)cc1
-16 | 0.4% | 17% | 2% | CCn1cc(CNC(=O)c2cc(-c3cc(OC)ccc3OC)nc3ccccc23)c(C)n1
-1 | 2.5% | / | -4% | COc1cc(/C=C/C(=O)N2CCC=CC2=O)cc(OC)c1OC
-1 | ? | -19% | -15% | CCN(CC)S(=O)(=O)c1ccc(/C(O)=C(\C#N)c2nc3ccccc3n2C)cc1
9 | -4.0% | -11% | 8% | Cc1cc(C(C)(C)C)cc(S(=O)(=O)NCCO)c1C
/ | 3.9% | / | 1% | CCCCN1CC[C@H]2C=CC[C@@H](C(=O)NCCc3ccccc3)[C@H]2C1=O
7 | / | -1% | / | CCc1nnc(NC(=O)c2csc3c2CCC(C)C3)s1 (stereo unspecified)
6 | -3.5% | -2% | 1% | COc1ccc(C2C(C(C)=O)=C(O)C(=O)N2c2cccnc2)cc1OC (stereo unspecified)
/ | -0.4% | 26% | -13% | COc1ccc(/C=C2/SC(=S)N(CCCC(=O)N3CCN(C)CC3)C2=O)cc1
/ | 1.3% | -30% | -13% | CCc1nonc1NC(=O)c1oc2cc(Br)ccc2c1C
/ | ? | / | ? | CC1C=CC=CC=CC=CC=CC=CC=CC(OC2OC(C)C(O)C(N)C2O)CC2OC(O)(CC(O)CC(O)C(O)CCC(O)CC(O)CC(=O)OC(C)C(C)C1O)CC(O)C2C(=O)O (stereo unspecified)
/ | 6.1% | 2%&-9% | -5% | Cc1cccc(N(C)C(=O)c2cc(S(=O)(=O)N3CCCC3)cn2C)c1
/ | -2.5% | / | -6% | Cc1ccc(C)c(-c2nnc(NC(=O)CCS(=O)(=O)c3ccccc3)o2)c1
-11 | -0.6% | -10% | -26% | O=C(Nc1cccn(Cc2ccc(F)cc2)c1=O)NC1CCCCC1
-6 | -0.4% | -19% | 14% | CSc1nsc(SCC(=O)Nc2ccc(Br)cn2)n1
/ | 0.4% | -15% | 2% | COc1cccc(/C=N/c2nc3ccccc3[nH]2)c1O
3 | -3.6% | -3% | 5% | CC(C)/C=N\NC(=O)CCCCC(=O)N/N=C/C(C)C
/ | -4.4% | / | -8% | CC(=O)NC(CC(=O)OCC(=O)NCCc1ccccc1)c1ccccc1 (stereo unspecified)

Compound activity deposited in PubChem BioAssay by National Center for Advancing Translational Sciences (NCATS).

An excerpt; count on the stated rates, not on these rows.
